RE007 growth inh: qHTS Assay for Inhibitors of the HIV-1 protein Vpr | Potency, µM (titrated, usually from 92.2 µM), for the others: top-dose activity change, negative = less growth | 360,000 tested, 0.21% active | S. pombe RE007 Vpr strain, BacTiter-Glo ATP luminescence, 24 h; control for the full effect not named in the record; active = well fitted falling curve with a large enough effect; inconclusive = small, poorly fitted or top-dose-only effect; inactive = no such curve, though single readings can be large or run the other way;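 further: nearly all actives have a fitted effect of over 50% in size; the assay follows cell death caused by Vpr and the record does not say whether a fall means rescue or toxicity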
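Fission yeast strain RE007, carrying one chromosomally integrated HIV-1 vpr copy, was seeded at OD 0.01 in PMG+AL medium with 23 nL pinned compound. After 24 h at 30 °C and 99% humidity, viability was read by BacTiter-Glo luminescence.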
2A StopGo: High Throughput Screening for Foot and Mouth Disease Virus Antivirals | human cells with a luciferase reporter of 2A StopGo recoding; control for the full effect not named in the record | Potency, µM (series often up to 57.9 µM), without a hit: at the top dose signal change, negative = less light | 410,000 tested, 1.2% active; active = well fitted falling curve with a large enough effect; inconclusive = small, poorly fitted or top-dose-only effect; inactive = no such curve, though single readings can be large or run the other way; tested in HEK293T cells; further: nearly all actives have a fitted effect of over 45% in size; luciferase light after 4 h
Starred values were filed as active, the others as inactive; ? = inconclusive; [ ] = remark or other dose. On the % scale 0 is the no-effect control and ±100 the full control effect; potency means the concentration at half of the fitted maximal effect. An excerpt (hit frequency here may not be typical).

SMILES | RE007 growth inh | 2A StopGo
CCCCCCCCN1C(=O)[C@H](CC(=O)NCC23CC4CC(CC(C4)C2)C3)C[C@@]2(C(=O)OCC)CCC=C12 | -11.2% | -16.3%
COc1cccc(OC)c1OCCN1CCC(C(=O)NC(c2ccc3c(c2)OCO3)c2ccccn2)CC1 (stereo not drawn) | -5.0% | -5.5%
COC(=O)c1ccc2nc(-c3ccccc3)c(Cc3cccc(F)c3)n2c1 | -15.2% | -11.3%
CCCCNC(=O)C1C(c2ccccc2)=Nc2ccccc2N1C(=O)c1ccc2c(c1)OCO2 (stereo not drawn) | 0.4% | 44.4%[activator]
COC(=O)C[C@H]1N(S(=O)(=O)c2ccc(C)cc2)C(C(C)C)CC1(C(=O)OC)C(=O)OC (stereo partly drawn) | -5.5% | -8.3%
CCCc1nc2c(C)cc(Br)cn2c1Cc1ccc(C)cc1 | ? | 0.0%
C[C@H]1CN([C@@H](C)CO)C(=O)CCCn2cc(nn2)CO[C@@H]1CN(C)C(=O)Nc1ccc(C(C)(C)C)cc1 | -18.1% | -12.8%
COc1ccccc1-c1ccc([C@@H]2C[C@H]3[C@H](CON3C)CN2C(=O)c2ccc(-c3ccccc3)cc2)cc1 | -2.7% | 18.8%
O=C1c2ccccc2C(c2nnnn2Cc2ccccc2)N1Cc1ccco1 (stereo not drawn) | 10.6% | -9.9%
COC(=O)C[C@H]1c2cc(C(F)(F)F)ccc2S(=O)(=O)N1Cc1ccccc1OC | -3.9% | -10.3%
Cn1cnc2ncnn2c1=S | -21.8% | -21.8%
COC(=O)C1(C(=O)OC)C/C=C\CN(S(=O)(=O)c2ccccc2[N+](=O)[O-])CCC1 | -2.0% | -9.6%
CN(C(=O)COC(=O)c1c[nH]c2ccccc12)c1ccccc1 | -5.3% | 6.7%
CCCCNC(=O)C1(C)CCN1C(=O)c1ccc(C)c(F)c1 (stereo not drawn) | -14.9% | -12.1%
Cc1cc2nc(NC(=O)C3(C)CCN3C(=O)C(C)C)[nH]c2cc1C (stereo not drawn) | 51.8% | 15.0%
CN1OC[C@@H]2CN(Cc3ccc(Cl)cc3)[C@H](c3ccc(-n4ccnc4)cc3)C[C@@H]21 | -13.0% | -20.1%
COc1ccc(Br)c(C(=O)OCC(=O)Nc2cc(C)on2)c1 | -14.5% | -19.0%
O=C(Nc1cccc(C(F)(F)F)c1)c1ccc2sc([C@@H]3O[C@H](CO)[C@H](O)[C@H](O)[C@H]3O)nc2c1 | 14.8% | 6.7%
COC1=CC(=O)C=C(OC)C1(O)CC(C)=O | 8.1% | -22.7%
COC(=O)C1=CN(c2ccc3c(c2)OCO3)C(N)=C(C#N)C1c1cccc(F)c1 (stereo not drawn) | 4.6% | 6.5%
Cc1ccc2ccccc2c1C(O)c1ncc(-c2ccc(Cl)cc2)[nH]1 (stereo not drawn) | -10.0% | -17.8%
CCCNC(=O)C1(C)CCCN(C(=O)c2ccccc2OC(F)(F)F)C1 (stereo not drawn) | -10.5%[18.4 µM] | -13.8%
COc1ccc(N(CC(=O)NCc2cccnc2)S(=O)(=O)c2ccccc2)c(OC)c1 | 2.9% | -15.8%
Cc1ccc(S(=O)(=O)N2C[C@H]3[C@H]4C(=O)N(c5ccccc5)C(=O)[C@H]4C[C@H](OC(=O)NCc4ccco4)[C@@]3(O)C2)cc1 | 1.1% | -22.0%
O=C(c1cc(C2CC2)nn1-c1ccccc1)N1CCN(S(=O)(=O)c2ccccc2F)CC1 | 9.2% | -10.6%
CC(=O)Nc1ccc(C(=O)N2CCCCC2c2cc(C(=O)Nc3cccc(C#N)c3)no2)cc1 (stereo not drawn) | 4.0%[18.4 µM] | -12.2%
CC(C)Oc1ccc(F)cc1-c1cc(C(=O)Nc2ccc(C(C)(C)C)cc2)[nH]n1 | -16.7%[18.4 µM] | ?
COc1ccc(C(C)(NC(C)=O)c2nc(-c3cccc(C(F)(F)F)c3)cs2)cc1 (stereo not drawn) | 2.4% | -13.2%
CCOC(=O)N1Cc2cc3ccccc3nc2C1 | 6.7% | 71.0%[activator]
CCc1nc2c(OCCOc3ccc(F)cc3)cccn2c1N(C=O)Cc1ccc(OC)cc1 | -4.2%[18.4 µM] | -23.4%
Cc1noc(C)c1NC(=O)N(C)C[C@@H]1OCc2cn(nn2)CCCC(=O)N([C@H](C)CO)C[C@H]1C | 7.4% | -27.0%
COc1ccc(CN2C[C@@H](CO)O[C@@H](n3cnc4c(NCc5ccco5)ncnc43)C2)cc1 | -2.7% | -8.1%
CCCCn1nnnc1C1(C)CCC(=O)N1c1ccc(N2CCOCC2)cc1 (stereo not drawn) | 2.8% | -1.5%
COc1ccc2c(c1)C(CC(C)=O)N(c1ccc(-c3cccnc3)cc1)C(c1ccsc1)=C2 (stereo not drawn) | -20.8% | -17.2%
Cc1cccc(OCCC(=O)OCC(=O)N2c3ccccc3NC(=O)C2(C)C)c1 | -5.8% | ?
CC1(C(=O)NCc2ccc(Cl)cc2)CCN1C(=O)Cc1ccc(Cl)cc1Cl (stereo not drawn) | 2.7%[18.4 µM] | -20.4%
O=S(=O)(Nc1ccc(C(O)(C(F)(F)F)C(F)(F)F)cc1)c1cccc2ccccc12 | 4.8% | 47.4%[activator]
CC(C)(C)c1ccc(C(O)c2ncc(-c3ccccc3Cl)[nH]2)cc1 (stereo not drawn) | -16.7% | 29.1%
CC[C@]12C(=O)N(C)C[C@H]([C@@H]3C(=O)N(Cc4ccccc4)C(=O)[C@@H]31)N2C(=O)c1ccccc1 | 1.9% | -16.6%
COc1cc(/C=N/N2CCN(Cc3ccccc3)CC2)cc(OC)c1OC | 3.7% | -7.2%
COc1ccc(C2CC(c3cccs3)=NN2C(=O)CCCC(=O)O)cc1OC (stereo not drawn) | -6.0% | -16.9%
CCC(CC)C(=O)N(C)c1c(C)nc2c(OCc3cc(Cl)cc(Cl)c3)cccn12 | -20.4%[18.4 µM] | 0.0%
CN(C(=O)c1cccc(NC(=O)Cc2cccc(NC(=O)C3CCCN(C(=O)C4CCC4)C3)c2)c1)C1CCC1 (stereo not drawn) | 2.5% | 0.0%
CN(c1cccc(F)c1)c1cc2c(c3c1ccn3C)C1CCC2O1 (stereo not drawn) | -9.8% | 9.1%
CCc1nc2ccc(C(=O)Nc3cc(-c4ccccc4)ccc3OC)cn2c1N(CC)CC(=O)N(C)C | -27.1% | 7.9%
C=CC(=O)Nc1cccc(Nc2nc(N[C@H]3CC[C@H](N(C)C)CC3)nc3c2ncn3C(C)C)c1 | -18.0% | ?
O=C(COC(=O)c1c(F)cccc1F)NC(=O)NCc1ccccc1 | -2.8% | 17.4%
O=C(Nc1cc(S(=O)(=O)N2CCOCC2)ccc1N1CCCC1)c1ccccc1C(F)(F)F | -12.4% | 12.7%
CCOC(=O)[C@@H]1[C@H]2COc3ccccc3[C@@H]2N2C(=O)N(c3ccc(Br)cc3)C(=O)[C@@]12C | 17.7% | 12.9%
O=C(NCc1ccccc1)C(c1ccccc1)n1c(=O)c(-c2cc3ccccc3[nH]2)nc2ccccc21 (stereo not drawn) | 1.2% | -4.2%

(cont.)
SMILES | RE007 growth inh | 2A StopGo
O=C1O[C@@H](c2ccccc2)C[C@@H](O)C(=O)CCCCc2ccccc21 | 0.2% | -21.1%
O=S1(=O)N[C@@H](Cc2ccccc2)COc2cc(N3CCC[C@@H]3CO)ccc21 | 2.9% | -12.2%
O=C(NCc1ccc(F)cc1)c1[nH]c(C(F)(F)F)nc1-c1ccccc1 | -8.7% | -19.3%
C[C@@H]1CN([C@H](C)CO)S(=O)(=O)c2ccc(Br)cc2O[C@H]1CN(C)C(=O)Nc1ccccc1 | 2.5% | -8.8%
[O-]C1=N[N+](=C(c2ccccc2)c2ccccc2)C1 | -15.3% | 0.0%
CN(C1=NS(=O)(=O)N=C(N(C)c2ccccc2)O1)c1ccccc1 | -2.3% | ?
CCOC(=O)[C@]12CCCC=C1N(Cc1ccco1)C(=O)[C@H](CC(=O)NCC13CC4CC(CC(C4)C1)C3)C2 | -16.8% | -14.0%
CCCCNC(=O)C(NC(=O)c1cccnc1)C(=O)c1ccccc1 (stereo not drawn) | 4.9% | -2.1%
CN(C)CCN(Cc1ccccc1)C(=O)c1[nH]c(C(F)(F)F)nc1-c1ccccc1 | -8.1% | 35.5µM*
O=C(NC1CCCC1)C(C1CC1)n1c(-c2ccncc2)nc2ccccc21 (stereo not drawn) | 2.4% | -18.1%
Cc1ccc(F)cc1C(=O)N1CCCCC1c1cc(C(=O)NCc2ccccc2)no1 (stereo not drawn) | -12.4%[18.4 µM] | -13.1%
O=C(NN=Cc1c[nH]c2ccccc12)NN=Cc1c[nH]c2ccccc12 | 1.2% | -5.7%
COc1cc(-c2nnc3sc(-c4ccncc4)nn23)cc(OC)c1OC | -5.7% | -17.9%
CNC(=O)C1Cc2c(-c3ccc4c(c3)OCO4)ccnc2O1 (stereo not drawn) | 0.1% | 1.7%
O=C(NCc1ccncc1)c1csc([C@@H]2O[C@H](CO)[C@@H](O)[C@H]2O)n1 | -1.5% | -14.0%
CC1C(=O)N(Cc2cn(Cc3ccco3)nn2)CCS(=O)(=O)N1Cc1ccc(-c2ccc(Cl)c(Cl)c2)cc1 (stereo not drawn) | -0.3% | -26.8%
Cc1cc(Oc2cccc3c2S(=O)(=O)N(C2CCCC2)CC(COCc2ccccc2)O3)cc(C)c1C (stereo not drawn) | 3.1% | ?
CCOc1ccc(CCN2C(=O)C(=O)N([C@@H](CC(C)C)CN3CCC[C@@H]3CN3C(=O)C(=O)NC[C@@H]3Cc3ccccc3)C[C@@H]2CC(C)C)cc1 | 11.2% | ?
N#CCC(=O)Nc1ccc(C(=O)Nc2cccc(S(=O)(=O)N3CCCC3)c2)cc1 | 8.3% | -17.7%
Clc1ccccc1NN=Cc1ccccn1 | 4.5% | 65.3%[activator]
COc1ccc(NC(=O)N(C)C[C@H]2Oc3cc(Br)ccc3S(=O)(=O)N([C@H](C)CO)C[C@@H]2C)cc1 | 3.2% | -2.6%
Cc1ccc(Cn2cc(CN(C)C3CN(Cc4cn(Cc5ccc(C)cc5)nn4)S(=O)(=O)C3)nn2)cc1 (stereo not drawn) | 3.3% | 0.0%
CCCNC(=O)c1cc(C2CCCCN2C(=O)c2ccc(NC(C)=O)cc2)on1 (stereo not drawn) | 6.9% | -7.7%
COc1ccc(CN(C)C(=O)[C@H]2O[C@@H](n3ccc(=O)[nH]c3=O)[C@H](O)[C@@H]2O)cc1OC | 4.3% | -11.6%
COc1cccc(C(C)(O)c2nc(-c3ccccc3OC)cs2)c1 (stereo not drawn) | 4.0% | -10.3%
CCc1ccc(C(O)c2ncc(-c3cccc(C)c3)[nH]2)cc1 (stereo not drawn) | -2.6% | 28.6%
COc1ccc(-c2nc(S(=O)(=O)c3ccccc3)c(N3CCCC3)o2)cc1 | 9.9% | -9.1%
CC1CCCC(NC(=O)CCCCCn2c(=S)[nH]c3ccsc3c2=O)C1C (stereo not drawn) | -2.2% | -12.8%
COc1cc(C=C(C#N)C(=O)c2ccccc2)cc(OC)c1OC | 10.9%[18.4 µM] | -7.9%
COc1ccccc1Cc1c(C(C)(C)C)nc2ccc(C)cn12 | ? | 0.0%

Part of the list above, with each value named:
> COc1ccc(NC(=O)N(C)C[C@H]2Oc3cc(Br)ccc3S(=O)(=O)N([C@H](C)CO)C[C@@H]2C)cc1
  RE007 growth inh: 3.2%; 2A StopGo: -2.6%
> Cc1ccc(Cn2cc(CN(C)C3CN(Cc4cn(Cc5ccc(C)cc5)nn4)S(=O)(=O)C3)nn2)cc1 (stereo not drawn)
  RE007 growth inh: 3.3%; 2A StopGo: 0.0%
> CCCNC(=O)c1cc(C2CCCCN2C(=O)c2ccc(NC(C)=O)cc2)on1 (stereo not drawn)
  RE007 growth inh: 6.9%; 2A StopGo: -7.7%
> COc1ccc(CN(C)C(=O)[C@H]2O[C@@H](n3ccc(=O)[nH]c3=O)[C@H](O)[C@@H]2O)cc1OC
  RE007 growth inh: 4.3%; 2A StopGo: -11.6%

Remaining list, next part
SMILES | RE007 growth inh | 2A StopGo
COC(=O)Cc1ccc(OC2(C)CCN(Cc3ccccc3OC(F)F)C2)cc1 (stereo not drawn) | -15.7% | -9.1%
Cc1ccc(C2=CC(c3ccccc3)n3ncnc3N2)cc1 (stereo not drawn) | -14.0% | -20.0%
C=C1C(=O)[C@]23C[C@H]1CCC2[C@@]1(C)C(C[C@@H]3O)[C@](C)(C(=O)O)CC[C@@H]1O (stereo partly drawn) | 1.1% | ?
COCCNC(=O)C1(C)CCCN(C(=O)c2c(F)ccc(C)c2F)C1 (stereo not drawn) | 3.4% | -16.3%
COc1cccc(CN2CCC(C(=O)NC(C)c3cccc4ccccc34)CC2)c1 (stereo not drawn) | -21.2% | -8.0%
C[C@H]1CN([C@@H](C)CO)C(=O)c2cc(Br)cnc2O[C@H]1CN(C)Cc1ccccc1C(=O)O | 12.3% | -15.7%
C[C@@H]1CCCCO[C@@H](CN(C)S(=O)(=O)c2cn(C)cn2)[C@@H](C)CN([C@H](C)CO)C(=O)c2cc(N(C)C)ccc2O1 | -4.0% | -4.4%
O=C(NCc1ccncc1)[C@@H]1CCCN1C(=O)[C@H]1CCCN1C(=O)c1cccs1 | -9.0% | -22.9%
CCOC(=O)C1(C)CCCN(C(=O)c2ccc(F)cc2Cl)C1 (stereo not drawn) | 10.6% | 1.1%

Fetched by structure from the entries so far, two records:
SMILES | RE007 growth inh | 2A StopGo
O=C(NCc1ccncc1)[C@@H]1CCCN1C(=O)[C@H]1CCCN1C(=O)c1cccs1 | -9.0% | -22.9%
C[C@@H]1CCCCO[C@@H](CN(C)S(=O)(=O)c2cn(C)cn2)[C@@H](C)CN([C@H](C)CO)C(=O)c2cc(N(C)C)ccc2O1 | -4.0% | -4.4%
